# Menin MLL FP FL: inhibitors of human menin-MLL interaction, wild-type MLL peptide | 290,000 tested, under 10 active | FP activity change, % at 61.4 µM | Fluorescence polarization, fluorescein-MLL peptide displacement from menin | AID 1766; inconclusive = falling polarisation curve, or a change in total fluorescence; inactive = total fluorescence flat and polarisation flat or rising; no compound was filed as active; the % refers to the polarisation; negative = inhibition;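 note: % of control where 0% means no effect; inhibitors lower the polarisation; unlabelled MLL peptide was the positive control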
# TRPML1 agonist: agonists of human TRPML1 channel; Q9GZU1; TRPML1-expressing cells, Ca2+ dye fluorescence, FDSS; host cell line not named in the record; reference of the full effect not given here; activation, % (concentration not given with the values); 410,000 compounds, 0.12% hits; in the data active = activation above about 50%; inconclusive = about 30% to 50%; inactive = below about 30%; note: 0% is about no effect; the text of the record puts the active cut at 80%
#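 Kinetic FDSS Ca2+ read in Tet-induced TRPML1-DL cells (ABD Ca8 dye plus quencher, 45-90 min RT loading): baseline, then compound, then 110 s agonist window; EC80 agonist 54-4 at 4uM final added afterwards for a 110 s antagonist window.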
# PINK1 expr mod: modulators of PINK1 expression | PINK1 immunofluorescence, high-content cytometry, 24 h | Potency, µM (highest dose often 76.6 µM), for the others: top-dose activation (PINK1 increase), actives largely listed as activators | 410,000 compounds, 0.2% hits | AID 624263; active = well fitted activation curve with a large enough effect; inconclusive = small, poorly fitted or top-dose-only effect; inactive = flat fitted curve, though single readings scatter; cell line not stated here;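 note: potency is the fitted concentration of half-maximal effect; % of control where 0% means no effect; nearly all actives have a fitted effect of over 65% in size; a mitochondrial uncoupler was the plate control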
#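 Compound titrations (5 concentrations, 24 h) on a stable cell line; DMSO and CCCP controls. Endpoint: fixed-cell PINK1 immunofluorescence with mitochondrial, cell and nuclear markers, scanned by microplate cytometer.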
# TRPV1 PAM: potentiators of human vanilloid receptor 1 (TRPV1). Q8NER1. TRPV1-expressing cells, Fluo-8 calcium influx, capsaicin EC20 potentiation; host cell line not named in the record; control for the full effect not named in the record. potentiation, % at 8.33 µM. 320,000 compounds, 0.02% hits; active means potentiation above 80%; inconclusive means 30% to 80%; inactive means below 30%; note: 0% is about no effect
# Target sequence (Q8NER1 whole entry, looked up): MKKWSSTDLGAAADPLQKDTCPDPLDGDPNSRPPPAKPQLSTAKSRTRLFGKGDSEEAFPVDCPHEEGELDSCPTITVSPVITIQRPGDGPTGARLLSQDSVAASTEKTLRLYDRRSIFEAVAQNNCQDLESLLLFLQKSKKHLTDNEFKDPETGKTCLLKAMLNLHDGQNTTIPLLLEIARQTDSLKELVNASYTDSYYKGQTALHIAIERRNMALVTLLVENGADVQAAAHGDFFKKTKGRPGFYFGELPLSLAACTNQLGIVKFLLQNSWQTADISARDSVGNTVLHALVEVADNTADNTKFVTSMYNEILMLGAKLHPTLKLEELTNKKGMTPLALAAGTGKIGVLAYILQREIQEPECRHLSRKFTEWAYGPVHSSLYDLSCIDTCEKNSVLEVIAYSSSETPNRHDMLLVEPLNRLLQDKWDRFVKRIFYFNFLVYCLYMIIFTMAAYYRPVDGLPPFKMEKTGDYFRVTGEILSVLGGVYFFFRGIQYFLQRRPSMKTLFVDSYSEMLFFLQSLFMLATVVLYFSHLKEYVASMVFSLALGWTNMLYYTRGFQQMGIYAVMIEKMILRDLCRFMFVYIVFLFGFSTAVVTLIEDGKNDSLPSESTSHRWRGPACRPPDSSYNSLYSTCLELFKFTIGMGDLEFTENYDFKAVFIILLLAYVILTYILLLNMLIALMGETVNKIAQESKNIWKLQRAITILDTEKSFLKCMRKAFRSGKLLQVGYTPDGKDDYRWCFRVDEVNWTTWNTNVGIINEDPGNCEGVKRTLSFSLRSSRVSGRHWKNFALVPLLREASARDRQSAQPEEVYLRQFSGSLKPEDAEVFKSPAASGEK
#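 Cells expressing TRPV1 were dye-loaded with Fluo-8 and read kinetically: 10 s baseline, 3 min after compound (agonist portion), then 2 min after EC20 capsaicin (allosteric enhancer portion). Calcium-bound dye fluorescence at 480/520 nm.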
# TRPML1 inh: human mucolipin-1 channel inhibition; TRPML1-inducible cells, Ca2+ dye fluorescence, FDSS; active compounds read low; inhibition of EC80 agonist-evoked calcium signal; activity change, negative = inhibition, % (no concentration beside the values); 390,000 compounds, 0.02% hits; in the data active means activity change below about -50%; inconclusive means about -30% to -50%; inactive means above about -30%;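 note: stimulus is agonist 54-4 at its EC80 concentration; % is set by controls: 0 for no effect and ±100 for the full control effect; compound concentration not given in the record; the text of the record puts the active cut at -80%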
#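 TRPML1-DL cells, Tet-induced overnight (~16 h, 37 °C) at 1,500 cells/well, were loaded with Ca8 no-wash dye plus quencher for 45-90 min at room temperature. Compounds were pinned during FDSS kinetic reading; agonist 54-4 at EC80 (4 uM final) then added.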
# ClpP mod: qHTS Assay for Activators of ClpP; ATP-dependent Clp protease proteolytic subunit (Bacillus subtilis (strain 168)), P80244; 340,000 compounds, 1.9% hits; purified B. subtilis ClpP, FRET peptide cleavage, 20 min; Potency, µM (doses to about 57.5 µM), for inactives: top-dose activity change, negative = active; AID 651965, 2013; active = well fitted falling curve with a large enough effect; inconclusive = small, poorly fitted or top-dose-only effect; inactive = no such curve, though single readings can be large or run the other way; note: potency is the fitted concentration of half-maximal effect; the source files actives as falling curves though it sought activators and does not explain the sign; nearly all actives have a fitted effect of over 65% in size; many hits overshoot -100%
# Target sequence (P80244 whole entry, looked up): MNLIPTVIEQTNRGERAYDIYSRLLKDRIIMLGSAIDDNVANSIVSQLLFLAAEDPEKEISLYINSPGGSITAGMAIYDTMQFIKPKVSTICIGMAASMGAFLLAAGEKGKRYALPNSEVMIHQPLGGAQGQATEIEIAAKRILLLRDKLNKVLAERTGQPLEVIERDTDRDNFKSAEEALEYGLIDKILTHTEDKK
#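 Buffer: 100 mM Tris/HCl pH8, 100 mM KCl, 0.05% low protease BSA, 2.5% glycerol, 0.01% Tween-20. ClpP 10 microg/mL final; 20 min RT; delta FRET normalized to ADEP and DMSO controls.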
# Sfp PPTase inh: inhibitors of Bacillus subtilis Sfp phosphopantetheinyl transferase | 310,000 compounds, 3.5% hits | AID 1490 | Biochemical Sfp PPTase activity, qHTS | Potency, µM, for inactives: max response, negative = inhibition, most hits filed as inhibitors; active = well fitted inhibition curve with a large enough effect; inconclusive = small, poorly fitted or top-dose-only effect, or another doubt; inactive = no such curve, though single readings can be large or run the other way;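 note: the enzyme is Sfp with the accession as filed and its product quenches rhodamine fluorescence; potency is the fitted concentration of half-maximal effect; 0% = enzyme reaction without inhibitor and -100% = no enzyme wells; top concentration of the series not given in the record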
#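 With Hepes-Na pH 7.6 buffer containing 10 mM MgCl2, Sfp (15 nM) modified BHQ-2-YbbR (12.5 uM) using rhodamine-CoA (5 uM). Two reads 30 minutes apart at 525/598 nm yielded each well's rate.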
# The depositor's hits bear a star; ? = inconclusive; · = no result given; & = joins results of further samples; [ ] = dose if it differs, or a comment.
SMILES,Menin MLL FP FL,TRPML1 agonist,PINK1 expr mod,TRPV1 PAM,TRPML1 inh,ClpP mod,Sfp PPTase inh
Cc1ccc(C2CC(=O)NC(SCc3ccccc3)=C2C#N)cc1 (centres undefined),2.0,0.9,2.0%,-6.0,-6.1,1.8%,6.7%
O=C(Cn1nc(-c2ccccc2)ccc1=O)NCCN1CCN(Cc2ccccc2)CC1,-0.7,-0.1,·,-16.2,-10.4,-2.8%,14.7%
CC(Oc1ccc(Cl)cc1)C(=O)NCCN1C(=O)S/C(=C\c2cccnc2)C1=O (centres undefined),9.7,-0.3,1.7%,-10.3,30.5,2.4%,-19.5%
CCOC(=O)C1=C(c2ccccc2)Nc2ncnn2C1c1ccc(OC)c(OC)c1OC (centres undefined),5.7,2.6,1.4%[38.3 µM],-0.3,3.3,0.0%,20.7%
CCn1c2ccccc2c2nnc(SCC(=O)N(C)C3CCS(=O)(=O)C3)nc21 (centres undefined),4.3,0.1,0.1%,-4.1,13.2,1.3%,5.0%
CCC(=O)c1ccc(OCC(=O)OCC(=O)Nc2sccc2C(N)=O)cc1,4.1,0.5,-0.8%,2.6,8.9,·,22.1%
CS(=O)(=O)c1ccc(Cl)c(NC(=O)CSc2nnc3n2CCCCC3)c1,·,0.3,-0.3%,·,-3.7,1.0%,·
COC(=O)c1c(NC(=O)c2ccccc2[N+](=O)[O-])sc2c1CC(C)(C)NC2(C)C,-1.5,-0.5,-0.6%,-11.5,-3.2,0.9%,3.4%
CC(C)Cc1nnc(NC(=O)Cc2ccc([N+](=O)[O-])cc2)s1,2.3,4.3,-0.1%,8.5,-3.2,-1.7%,-1.7%
COc1ccccc1C(=O)NNC(=O)c1ccc(NC(=O)c2ccccc2)cc1,-1.6,-0.7,2.9%,-2.7,13.8,0.5%,12.5%
COC(=O)c1cc(=O)n(-c2ccc(F)cc2)c(=Nc2ccc(F)cc2)s1,-1.7,0.5,-1.3%,-4.2,6.9,0.6%,3.5%
NC(CSC(c1ccccc1)(c1ccccc1)c1ccc(-c2ccccc2)cc1)C(=O)O (centres undefined),·,0.5,-0.1%,·,2.3,-0.5%,·
CCn1c(=O)c(C(=O)NNC(=O)c2ccccc2Cl)c(O)c2ccccc21,-1.2,?,2.6%,20.6,15.9,·,14.3%
NC(=O)c1cc(C(=O)c2ccc(Cl)cc2Cl)c[nH]1,1.3,-0.7,0.6%,8.0,1.5,·,23.2%
COc1ccc(-c2csc(NC(=S)NC(=O)c3ccccc3)n2)cc1Br,7.1,-0.3,-1.3%,-13.7,-5.7,-1.8%,8.4%
COCc1nnc(NC(=O)CC(c2ccccc2)c2ccccc2)s1,-3.1,0.1,1.6%,28.2,-6.3,0.4%,17.7%
CCCn1cc(NC(=O)C2CC(c3cccc(Br)c3)=NO2)cn1 (centres undefined),-1.1,-0.5,5.0%[38.3 µM],1.9,-8.3,-1.0%,-0.1%
CCCCNC(=S)N(CCCO)Cc1cc2cc3c(cc2[nH]c1=O)OCO3,·,-0.6,2.3%,·,51.8,4.3%,·
CCCC(=O)NC1=C(C#N)C2(CCCC2)Cc2ccccc21,3.9,0.5,7.2%[38.3 µM],·,21.1,-0.2%,-4.1%
O=C(Nc1cccc(F)c1)C1CCN(C(=O)c2ccc(Cl)cc2)CC1,3.0,-1.0,0.6%,1.0,-2.4,25.1µM*,8.3%
CCOC(=O)c1sc(N=NC2=C(O)CCCC2=O)c(C(=O)OCC)c1C,5.1,0.0,-0.1%,-3.1,-0.7,-1.6%,-24.6%
O=C(CSc1nnnn1Cc1ccccc1)Nc1ccc2c(c1)OCO2,2.4,-0.9,-0.4%,6.4,2.2,-1.0%,-11.1%
O=C(O)C1CCN(Cc2oc(CO)cc(=O)c2O)C1 (centres undefined),·,1.0,-6.3%,·,39.6,-2.3%,·
S=C1NC2(CCCC2)N=C1c1ccccc1,-0.5,0.1,2.5%,8.5,-3.8,-1.1%,6.6%
Nc1c(-c2cccs2)cnn1-c1nc(-c2ccc(Cl)cc2Cl)cs1,-2.9,0.8,8.5%,·,5.1,-8.2%,-22.7%

# (more compounds)
SMILES,Menin MLL FP FL,TRPML1 agonist,PINK1 expr mod,TRPV1 PAM,TRPML1 inh,ClpP mod,Sfp PPTase inh
CCOC(=O)c1c(C)nc2ccc(C)cn12,-0.1,-0.3,-0.2%,12.2,-16.0,-5.0%,16.6%
CCOn1c(=O)c(-c2ccc(C)cc2)[n+]([O-])c2ccccc21,-2.0,0.1,-0.6%,17.2,-3.2,-1.8%,0.7%
Cc1ccc(SCC(=O)NCCN2C(=O)CSC2=O)cc1C,-0.1,-0.6,4.0%,-6.6,-17.0,0.8%,5.5%
O=c1c(Cc2ccc(F)cc2)c(O)ccn1C1CC1,-2.1,-0.9,-1.8%,0.9,-6.6,-2.5%,-6.2%
CCC(CO)Oc1cc(NCc2ccc(Cl)cc2)c2ncn(C(C)C)c2c1 (centres undefined),·,-1.1,-0.6%,·,-8.0,-3.9%,·
CCCCCn1c(N2CCC(Cc3ccccc3)CC2)nc2c1c(=O)[nH]c(=O)n2C,·,0.2,-1.1%,·,15.5,0.3%,·
CC(=O)Nc1cc2c(cc1NC(=O)Cn1nc(-c3ccc4c(c3)OCCO4)ccc1=O)OCCO2,-1.3,0.3,1.1%,3.3,16.2,3.5%,16.7%
CCOc1ccc(C(=O)N[C@H](C(=O)Nc2ccc(S(=O)(=O)Nc3nccs3)cc2)C(C)C)cc1,·,-0.7,0.6%,·,11.4,-1.2%,·
COC(=O)CCCC1=CC2=CC(=O)C(C)(OC(=O)C3CCCC3)C(=O)C2=CO1 (centres undefined),?,0.9,2.6%,-1.1,9.8,1.1%,2.3%&-22.7%
CCN(CC)C(C(=O)Nc1ccc2c(c1)OCO2)c1ccccc1 (centres undefined),3.2,-0.6,-2.2%,-11.3,-9.3,-0.9%,6.1%
Cc1oc(-c2ccc(Cl)cc2)cc1-c1nn2c(-c3ccoc3C)nnc2s1,49.1[activator],0.0,5.8%,22.1,-8.3,2.4%,10µM*
CN(C)CCN(C(=O)c1ccc(S(=O)(=O)N2CCCC2)cc1)c1nc2ccc(Br)cc2s1,·,1.2,-0.7%,-2.7,-7.3,0.4%,-16.9%
CCOC(=O)C1(Cc2cccc(OC)c2)CCN(C/C=C/c2ccc(OC)cc2)CC1,-2.9,0.2,4.8%,0.4,1.6,·,3.4%
CC(=O)N1CC=CC1(C)C(=O)NCc1cc(F)cc(C(F)(F)F)c1 (centres undefined),2.5&-0.3,-0.9,3.9%,29.7,20.4,2.2%,-5.3%&14.4%
COc1ccc(OC)c(/C=C2\SC(=S)N(C(C(=O)O)c3ccccc3)C2=O)c1 (centres undefined),?,4.4,0.0%,-3.5,14.1,-0.3%,56.2µM*
CCOc1ccc(NC(=O)Cn2c(=O)n(CCC(=O)NCCc3ccccc3)c(=O)c3ccccc32)cc1,·,0.6,-0.4%,·,3.4,-0.2%,·
Cn1nnnc1NCc1cccc(Cl)c1,0.4,-0.3,5.2%,3.0,8.5,0.3%,11.5%
O=C(Nc1cccc(Cl)c1)c1cc(-c2ccc3c(c2)OCCO3)on1,·,-0.3,3.0%,·,16.2,?,·
CC(=O)c1cc(C#N)c(SCc2ccccc2C#N)nc1C,2.3,-0.9,9.7%,6.8,-8.9,-3.8%,2.4%
Cc1ccc(-n2ncc3c(Nc4cccc(C(F)(F)F)c4)ncnc32)cc1C,·,0.6,6.4%,·,5.1,4.2%,·
Cc1ccc2nc(NC(=O)C3CCN(S(=O)(=O)c4cccs4)CC3)sc2c1,10.5,2.3,0.2%[38.3 µM],-19.9,40.5,-4.4%,6.8%
CCC(CC)c1nc(C(N)=O)c2[nH]c(=O)n(-c3ccc(OC)c(OC)c3)c2n1,-15.0,0.2,0.0%,12.5,18.6,-0.7%,9.8%
Cc1ccc(S(=O)(=O)C2CS(=O)(=O)CC2O)cc1 (centres undefined),-1.7,0.5,-0.3%[38.3 µM],2.7,-2.8,-0.6%,-0.8%
CCCc1cc(=O)[nH]c(SCC(=O)Nc2c(C)n(C)n(-c3ccccc3)c2=O)n1,·,-0.2,-2.7%,·,-5.8,·,·
Cc1ccc(-n2nc(C)c3c(C)c(CCC(=O)O)c(C)nc32)cc1C,1.4,0.2,1.9%,-40.0,21.2,4.1%,2.6%

# (continued)
SMILES,Menin MLL FP FL,TRPML1 agonist,PINK1 expr mod,TRPV1 PAM,TRPML1 inh,ClpP mod,Sfp PPTase inh
COc1ccc(C(c2nnnn2C(C)(C)C)N2CCN(C/C=C/c3ccccc3)CC2)cc1 (centres undefined),·,-0.3,1.4%,·,·,-0.8%,·
Fc1cccc(COc2ccccc2CNc2ccccc2)c1,3.6,-0.2,15.2%,-2.3,15.3,0.5%,-4.0%
COc1ccc(/C=N/NC(=O)c2[nH]ncc2Br)c(OC)c1,1.3,0.3,3.5%[38.3 µM],0.8,22.4,-5.3%,13.6%
Cc1nnc(N2C(=O)C(=O)/C(=C(/O)c3ccc4c(c3)CC(C)O4)C2c2ccccc2F)s1 (centres undefined),1.1,1.6,1.2%,0.9,3.1,-3.8%,11.2%
Cc1ccccc1-c1nc(CS(=O)CC(=O)NCc2ccccc2)c(C)o1 (centres undefined),0.0,0.0,1.8%,-7.7,-3.8,-1.7%,5.0%
O=C1NC2(CCCCCC2)Cc2ccccc21,0.1,1.6,-2.3%[38.3 µM],4.3,-4.0,-1.8%,-1.7%
O=c1[nH]cnc2cc(-c3ccc(Br)cc3)sc12,-2.5,-0.2,-0.8%,4.3,-8.8,·,5.0%
O=C1CSC(=S)N1N=Cc1cccc(OCc2ccccc2)c1,·,-0.6,2.4%,·,-25.8,-4.7%,·
CC(C)(C)Cc1c(-c2ccc(Cl)cc2)nc2ccc(Br)cn12,·,0.5,31.6µM*,·,-7.9,-0.6%,·
Cc1ccc(NC(=O)CN(C)S(=O)(=O)c2cccc3cccnc23)cc1C,-1.1,-0.2,-0.5%,10.8,-1.1,1.1%,10.1%

# Compounds were not picked by outcome. About 4.4% of those tested had a hit in this group.
